Source: PubChem (several laboratories)
HNF4A DNA FP: change in binding of human HNF4 alpha to DNA | HNF4a-FITC DNA binding, fluorescence polarization, 1 h | activity change, % at 10 µM | 0.3% of 360,000 active | AID 1224865; in the data active = activity change above about 30%, passing the limit was not always enough;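 also: controls were the assay level and a saturating level of protein; the project sought stronger binding though the title names inhibitors; some compounds called inactive have numbers as strong as hits; positive values seem to mean higher polarization but the record does not say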
Target sequence (P41235 whole entry, looked up): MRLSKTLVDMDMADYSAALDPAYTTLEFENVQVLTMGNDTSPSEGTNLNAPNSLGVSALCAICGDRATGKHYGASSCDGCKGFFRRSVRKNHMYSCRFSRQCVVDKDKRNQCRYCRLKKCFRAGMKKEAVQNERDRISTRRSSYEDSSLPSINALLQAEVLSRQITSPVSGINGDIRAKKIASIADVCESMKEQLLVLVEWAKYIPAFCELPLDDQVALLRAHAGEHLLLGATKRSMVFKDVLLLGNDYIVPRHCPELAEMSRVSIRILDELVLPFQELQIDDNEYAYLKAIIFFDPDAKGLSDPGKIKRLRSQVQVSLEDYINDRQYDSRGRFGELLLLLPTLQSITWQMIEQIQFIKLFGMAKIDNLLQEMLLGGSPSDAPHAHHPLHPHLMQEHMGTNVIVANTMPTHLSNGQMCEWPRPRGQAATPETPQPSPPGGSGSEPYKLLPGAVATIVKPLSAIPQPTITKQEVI
Ecoli growth: blocks Escherichia coli growth; 0.21% of 330,000 active; AID 1053175; OD600 absorbance (concentration not given with the values); OD600, 23 h; active compounds read low;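 active = OD600 absorbance below the run mean of sample wells minus 3.6 SD, in any replicate, cut at about 0.56 in these data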;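 also: stock transfer was 300 nL into about 60 µL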
AF4-AF9 inh: MLL-AF4/AF9 protein interaction inhibition; P42568; AlphaScreen, biotin-AF4 peptide binding to FLAG-AF9; inhibition, % at 10 µM; 0.47% of 350,000 active; AID 651704;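 active = every replicate reaching a set inhibition limit, whatever the replicate mean, cut at about 25% in these data; inconclusive = mean inhibition reaches that limit but some replicates miss it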;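 also: 0% = plate neutral control median and 100% = total signal loss; the record names both 10 and 1 µM as test concentration; the first replicate is given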
Ecoli rRNA inh: inhibits bacterial ribosomal RNA function over humanized ribosomes. GFP signal change (wild-type ribosome), % (test concentration not listed). 1.6% of 350,000 active. AID 720706. E. coli WT GFP vs humanized-ribosome RFP mutants, fluorescence, 24 h; active compounds read low; DMSO median 0, no signal -100;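 active = significant combined selectivity score with lowered wild-type GFP, culture density cut under 30%, mutant RFP and density less affected; inactive = any of these conditions unmet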; also: one replicate is shown; some compounds called inactive have numbers as strong as hits
ALR H2O2 inh: inhibitors of human sulfhydryl oxidase ALR. 3.8% of 290,000 active. inhibition, % (no concentration beside the values). purified ALR, DTT oxidation, H2O2 HRP-luminol luminescence;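 active = mean and each replicate at 75% or more; inconclusive = only one of the two met; inactive = neither met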;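 also: stock transfer was 7.5 nL into about 7.5 µL; 0% = neutral wells and 100% = wells with inactivated enzyme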
Target sequence (P55789 whole entry, looked up): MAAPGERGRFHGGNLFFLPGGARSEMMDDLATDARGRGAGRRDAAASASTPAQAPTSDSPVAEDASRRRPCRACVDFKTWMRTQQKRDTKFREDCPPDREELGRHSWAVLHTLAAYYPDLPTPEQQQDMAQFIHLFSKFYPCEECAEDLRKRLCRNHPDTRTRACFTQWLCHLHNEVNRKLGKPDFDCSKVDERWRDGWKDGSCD
FGF22 binding: binders of recombinant human FGF22 by thermal shift | Q9HCT0 | SYPRO orange fluorescence; percent of sucrose octasulfate shift, DMSO zero | calls only at 9.99 µM | 1.5% of 340,000 active | AID 651658;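 active = melting point raised past a set limit in the mean and every replicate; inconclusive = no clear call; three in four hits are not shown here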
Target sequence (Q9HCT0 whole entry, looked up): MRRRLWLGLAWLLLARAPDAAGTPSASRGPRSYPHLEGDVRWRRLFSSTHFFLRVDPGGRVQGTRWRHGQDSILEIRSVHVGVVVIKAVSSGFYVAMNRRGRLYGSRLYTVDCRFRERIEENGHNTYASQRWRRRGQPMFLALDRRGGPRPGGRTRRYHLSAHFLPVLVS
Vif A3G: HIV-1 Vif–A3G interaction blockers – biochemical, TR-FRET, GST-Vif 1-94, biotin-A3G peptide, dose response retest, primary screen (AID 1117319); TR-FRET GST-Vif / biotin-A3G peptide binding; higher % means a stronger effect; test concentration not given here; strong numbers were not always called active; 0.57% of 260,000 active; one-dose inhibition, %; IC50 in µM for titrated hits;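 active = above the screen mean plus three standard deviations and confirmed in dose response; inconclusive = results disagree or hit not tested in dose response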;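 also: Vif residues 1-94 fused to GST binding biotinylated APOBEC3G peptide 110-148; 0% = full assay without inhibitor and 100% = GST in place of GST-Vif; retest series ran down from 100 µM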
Ecoli rRNA inh OD600: recorded beside Ecoli rRNA inh, whose call it bears; OD600 change, %; measured here: OD600 growth;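 optical density of the mix in the first replicate; 0 = DMSO median and -100 = no signal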
Ecoli rRNA inh RFP: second read-out of Ecoli rRNA inh, no call of its own (marks repeat the call); RFP signal change, %; measured here: RFP humanized mutant strains;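 first replicate; 0 = DMSO median and -100 = no signal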
Numbers without * were called inactive; i = inactive; ? = inconclusive; / = no result given; & = joins results of further samples. A portion of the library; rates above refer to the full screens.

canonical_smiles,HNF4A DNA FP,Ecoli growth,AF4-AF9 inh,Ecoli rRNA inh,Ecoli rRNA inh OD600,Ecoli rRNA inh RFP,ALR H2O2 inh,FGF22 binding,Vif A3G
COc1cccc(C(=O)NNc2c3ccccc3nc3ccccc23)c1,4.1,0.67,-0.5,-3,3,-1.8,0,i,-5%
COCc1cccc(-c2csc(C(O)c3ccc(OC)cc3)n2)c1 (centres undefined),0.5,/,-3.3,4,-21,-6.3,/,i,/
O=C1[C@H]2[C@H](C=CC[C@H]2C(=O)N2CCN(c3ccccc3)CC2)CCN1Cc1ccccc1,0.3,/,8.0,-16,-17,-2.4,/,i,/
N#C/C(N)=C(/C#N)N=Cc1cccc(Cl)c1,0.7,0.68,4.5,/,/,/,7,i,7%
CSc1ccc(S(=O)(=O)N(C)Cc2ccccc2)cc1,-1.4,0.69,-3.9,-29,-38,-7.2,/,i,0%
Cc1ccc(Cn2ncc3c(N4CCN(CC#N)CC4)ncnc32)cc1,0.2,0.66,-0.7,0,4,-2.5,-6,i,?
Cc1nn(C(C)C(=O)NCCc2cccs2)c(=O)c2nn(-c3ccccc3)c(C)c12 (centres undefined),0.0,0.72,-0.8,-3,-6,-1.1,-2,i,3%
CCOC(=O)C1CCCCN1Cc1ccc(OC)c(OC)c1 (centres undefined),0.3,0.68,-1.7,11,11,2.6,2,i,-1%
Cc1ccc2oc(C(=O)NCc3ccc4c(c3)OCO4)c(C)c2c1,-1.0,0.7,/,/,/,/,-1,/,-11%
C[C@H](O)C#Cc1cnc2c(c1)C(=O)N([C@H](C)CO)C[C@@H](C)[C@H](CN(C)C(=O)Nc1ccc(C(F)(F)F)cc1)O2,1.1,/,-0.8&-1.0,1&1,10&-3,0.1&-4.2,/,i,/
Cc1nc(SCC(O)CCl)c([N+](=O)[O-])[nH]1 (centres undefined),0.7,0.75,/,/,/,/,2,/,?
Cc1ccc(S(=O)(=O)N(C)c2c(C)ccc(S(N)(=O)=O)c2C)cc1,0.6,0.68,0.7,-9,-20,-4.1,-2,i,-7%
Cc1c(C)n(C)c2ccc(C(=O)NCCCN3CCCC3)cc12,5.8,0.71,11,8,11,-0.5,11,i,/
CCCCC1Cc2[nH]c(=S)[nH]c(=O)c2C(c2ccc(C(C)C)cc2)O1 (centres undefined),-2.0,/,-0.3,18,15,1.3,/,i,/
O=C1COc2ccc(S(=O)(=O)NCc3ccc(Cl)cc3)cc2N1,-0.7,0.7,-0.2,1,3,0.4,-15,i,/
CCCC(=O)Nc1ccc2nc(C)n(Cc3ccccc3Cl)c(=O)c2c1,6.0,0.68,-2.9,-8,-17,0.1,-4,i,/
COc1cc2c3c(c1)c(N=NC(N)=S)c(O)n3C(C)(C)C=C2C,-2.3,0.7,-2.9,6,9,5.2,-4,i,/
Cc1cccc(NC(=O)CN2CCN(C(=O)CNC(=O)c3ccc(-c4ccccc4)cc3)CC2)c1C,-0.6,/,-7.4,-1,-1,2.2,/,i,/
Cc1ccc(S(=O)(=O)Nc2ccc3c(c2)C(=O)N([C@@H](C)CO)C[C@@H](C)[C@H](CN(C)S(=O)(=O)c2ccc(F)cc2)OCCCC[C@H](C)O3)cc1,/,/,-5.0,-2,4,-0.1,/,i,/
CN(CC(=O)NC(=O)Nc1ccccc1F)Cc1ccccc1F,-1.9,0.68,0.7,-11,-33,-7.4,-7,i,-1%
O=C(COC(=O)C1CC2C=CC1C2)Nc1ccc2c(c1)OC(F)(F)O2 (centres undefined),-1.1,0.64,/,/,/,/,4,/,28%
O=C(CCCc1c[nH]c2ccccc12)Nc1ncccc1O,0.9,0.66,-3.6,0,1,1.4,71,i,/
COCCCn1c(SCc2cccc(OC)c2)nc2cc(OC)c(OC)cc2c1=N,1.4,0.68,/,/,/,/,-7,/,?
CN(C(=O)C=Cc1ccco1)c1ccccc1,-0.6,0.71,-3.0,3,7,3.8,/,i,0%
COc1ccc(NC(=S)N/N=C2\CC(C)(C)Oc3ccc(O)cc32)cc1,1.5,/,13,-25,-37,4.1,11,i,?
O=C(C[C@@H]1CC[C@H](NC(=O)NC2CCCCC2)[C@H](CO)O1)NCc1ccc(F)cc1,/,/,1.7,-1,0,-1.8,/,i,/
C[C@@H]1CN([C@H](C)CO)C(=O)c2cc(C3=CCCC3)cnc2O[C@@H]1CN(C)C(=O)Nc1ccc(F)cc1,/,/,-0.7,-4,-2,-1.3,/,i,/
CCn1c(C(O)c2cc(OC)ccc2OC)nc2ccccc21 (centres undefined),-2.2,0.64,2.7,19,4,6.6,-6,i,/
O=C(CSc1nccn1Cc1ccc(F)cc1)NC1CCCC1,-1.5,0.72,0.9,1,5,2.0,0,i,-2%
O=C(COC(=O)/C=C/c1ccccc1[N+](=O)[O-])Nc1ccc(OC(F)F)cc1,1.4,0.7,/,/,/,/,/,/,-5%
COc1cccc(NC(=O)CN(C)C(=O)CC2Sc3ccccc3NC2=O)c1 (centres undefined),-0.9,0.61,-1.4,-1,-13,2.9,7,i,-6%
Cc1ccc(NC2=C(Cl)C(=O)OC2OC(=O)c2ccco2)cc1C (centres undefined),-1.0,0.67,6.3,/,/,/,91*,i,22%
COc1ccc(OC)c(/C=N/NC(=O)c2cccc3ccccc23)c1,2.8,/,-1.2,10,0,0.6,-2,i,/
CCCCCCC#Cc1cncc(C(=O)NNC(=O)Nc2cc(Cl)cc(Cl)c2)c1,3.2,/,-2.7,0,-18,-5.2,-15,i,/
O=C(c1ccc(-n2cnnn2)cc1)N1CCN(C(c2ccccc2)c2ccccc2)CC1,-0.9,0.71,/,/,/,/,-7,/,32%
Cc1ccc(C)c(C(=O)COC(=O)c2n[nH]c3ccccc23)c1,-0.1,0.68,-4.7,-56,-76,-17,1,i,3%
NC(=O)COC(=O)c1cccc2c1-c1ccccc1C2=O,-1.9,/,0.4,-16,-6,-1.6,-5,/,2%
C[C@H](CO)N1C[C@H](C)[C@@H](CN(C)S(=O)(=O)c2cn(C)cn2)Oc2ccc(NC(=O)c3ccncc3)cc2CC1=O,/,/,0.0,2,3,-3.7,/,i,/
CCNC(=O)C[C@H]1C=C[C@H](NC(=O)C2CC2)[C@@H](CO)O1,/,/,-0.6,1,5,-2.8,/,i,/
COc1ccc(-c2nnc(NC(=O)C(C)C)o2)cc1,0.3,0.75,1.5,2,2,-1.9,-7,i,1%
CC(=O)Nc1ccc(OCc2cnc(Cl)s2)cc1,-2.8,0.62,-1.4,0,1,-6.8,4,i,-12%
CSc1ccccc1NC(=O)CN(C)C(=O)c1c(C)nn(Cc2ccccc2)c1C,-4.2,0.61,3.7,-1,-2,-0.5,/,i,0%
COCC(=O)N[C@H]1CC[C@H](CC(=O)NCc2ccccc2OC)O[C@H]1CO,/,/,-12,4,7,-0.8,/,i,/
C[C@@H]1CCCCO[C@@H](CN(C)Cc2ccc(C(F)(F)F)cc2)[C@@H](C)CN([C@H](C)CO)C(=O)c2cc(NC(=O)CCC(F)(F)F)ccc2O1,/,/,1.9,0,9,-4.4,/,i,/
Cc1ccc(C2=NNC3(CCOC(C)(C)C3)S2)cc1 (centres undefined),2.7,0.68,1.4,12,7,3.3,-4,i,/
O=C(C[C@@H]1CC[C@@H]2[C@H](COC[C@@H](O)CN2CCC(F)(F)F)O1)N1CCC(Cc2ccccc2)CC1,/,/,0.9,-13,-40,5.8,/,i,/
O=S(=O)(Nc1nnc(C2CCCCC2)s1)c1ccc(F)cc1,-1.1,0.68,-2.3,-29,-30,-2.1,-1,i,/
O=C(COc1ccc(F)cc1Cl)N(Cc1nnc(-c2ccccc2Cl)o1)C1CC1,2.2,0.71,-11,-39,-43,-4.0,/,i,2%
Cc1ccc(-c2nc3ncccc3o2)cc1NC(=O)Cc1ccc(Cl)cc1,-2.9,0.72,/,/,/,/,0,/,16%
CCC(=O)OCC(=O)Nc1cc(C)c(C)cc1[N+](=O)[O-],-1.1,0.68,-1.1,9,-1,0.2,-20,i,13%
Cc1cccc(NC(=O)NNC(=O)COc2ccc([N+](=O)[O-])cc2)c1C,4.2,0.69,-3.0,4,4,-1.2,7,i,/
S=c1[nH]nc(-c2ccccn2)n1/N=C/c1c(Cl)cccc1Cl,1.2,/,-1.7,7,8,-0.2,/,i,9%
Cc1cc(SCC(=O)Nc2ccc(O)cc2)n2nc(C)c(-c3ccccc3)c2n1,0.0,0.65,3.4,-20,-16,16,99*,i,2%
O=C(CCN=C1NS(=O)(=O)c2ccccc21)OCC(=O)c1ccccc1,0.7,0.69,1.0,1,7,-1.3,-3,i,9%
COCCNC(=O)C1(C)CCCN(Cc2ccc(-c3ccccn3)cc2)C1 (centres undefined),0.3,/,0.5,1,4,1.2,/,i,/
CCc1nc2c(OCc3ccc(F)c(F)c3)cccn2c1N(C)C(=O)C(C)C,-2.6,/,0.2,-21,-69,-2.4,/,i,/
C[C@@H]1CN([C@H](C)CO)C(=O)c2cc(N(C)C)ccc2O[C@@H](C)CCCCO[C@H]1CN(C)Cc1ccccc1,/,/,7.2,-3,-5,-1.9,/,i,/
COc1ccc(NC(=O)C2CCCN2C(=O)OCc2ccccc2)cc1 (centres undefined),2.8,0.68,0.8,3,-1,-4.0,/,i,-8%
O=C(CSc1c(Cl)cccc1Cl)N1CCC(c2nc3ccccc3s2)CC1,3.8,0.72,/,/,/,/,-3,/,85%
O=C(Cn1ccsc1=NC(=O)C(F)(F)F)c1ccccc1,3.5,0.73,/,/,/,/,-2,/,-1%

(more compounds)
canonical_smiles,HNF4A DNA FP,Ecoli growth,AF4-AF9 inh,Ecoli rRNA inh,Ecoli rRNA inh OD600,Ecoli rRNA inh RFP,ALR H2O2 inh,FGF22 binding,Vif A3G
COC(=O)[C@H]1[C@H](CO)[C@H]2Cn3c(ccc(C4=CCCC4)c3=O)[C@H]2N1C(=O)C1CCCC1,/,/,-3.2,3,4,-4.7,/,i,/
Cc1nnc(SCC(=O)N2CC(=O)Nc3ccccc32)n1-c1ccccc1,0.0,0.71,/,/,/,/,-11,/,?
CCOC(=O)C1CCN(Cc2ccc(F)cc2)CC1,3.5,0.72,2.2,23,14,-1.7,-3,i,7%
Cc1ccc(C(=O)OCC(=O)NCCN2C(=O)CSC2=O)cc1[N+](=O)[O-],-2.1,0.63,-4.7,7,15,-3.5,-4,i,/
C[C@@H]1CN([C@@H](C)CO)C(=O)c2cccc(NS(=O)(=O)c3ccc(Cl)cc3)c2O[C@@H]1CN(C)C(=O)NC1CCCCC1,/,/,-2.8,-1,-6,-0.5,/,i,/
COC(=O)C1NC(=O)N2C(C(=O)OC)C(C)(C)S[C@H]12 (some centres undefined),-1.9,/,-2.2,9,1,-5.4,-2,i,/

Part of the list above, showing only HNF4A DNA FP and Ecoli rRNA inh:
canonical_smiles | HNF4A DNA FP | Ecoli rRNA inh
COC(=O)C1NC(=O)N2C(C(=O)OC)C(C)(C)S[C@H]12 (some centres undefined) | -1.9 | 9
C[C@@H]1CN([C@@H](C)CO)C(=O)c2cccc(NS(=O)(=O)c3ccc(Cl)cc3)c2O[C@@H]1CN(C)C(=O)NC1CCCCC1 | / | -1
COC(=O)[C@H]1[C@H](CO)[C@H]2Cn3c(ccc(C4=CCCC4)c3=O)[C@H]2N1C(=O)C1CCCC1 | / | 3
